High-throughput results: PubChem, National Center for Advancing Translational Sciences (NCATS)
Vaccinia Venus – inhibitors of vaccinia virus (Venus reporter); Vaccinia virus Venus reporter expression, fluorescence; AID 720580; hit rate 0.46% among 330,000; Potency, µM (titrated, usually from 36.5 µM), for inactives: top-dose activity change, negative = inhibition, hits mostly inhibitors; active means well fitted inhibition curve with a large enough effect; inconclusive means small, poorly fitted or top-dose-only effect; inactive means no such curve, though single readings can be large or run the other way; tested in A549 cells; note: nearly all actives have a fitted effect of over 30% in size; inactives centre near -10
VACV mCherry inh – vaccinia inhibition (mCherry reporter) | hit rate 0.63% among 310,000 | AID 720579 | Vaccinia virus mCherry reporter infection, fluorescence; about a quarter of the inactives have no number | Potency, µM (series often up to 36.5 µM), inactives show at the highest dose activity change, negative = inhibition, most hits filed as inhibitors; active = well fitted inhibition curve with a large enough effect; inconclusive = small, poorly fitted or top-dose-only effect; inactive = no such curve, though single readings can be large or run the other way; tested in A549 cells; note: nearly all actives have a fitted effect of over 35% in size; inactives centre near -10
* = called active by the depositor; i = inactive; ? = inconclusive; . = not tested or not shown; & = joins results of further samples; [ ] = remark or other dose. % is set by controls: 0 for no effect and ±100 for the full control effect; potency is the fitted concentration of half-maximal effect. Compounds as they come; any-hit rate near 0.82%.

mol,Vaccinia Venus,VACV mCherry inh
CCc1ccc(OCCCCCn2ccnc2)cc1,-17%,-2%
N#CC(C#N)=NNc1ccc([N+](=O)[O-])cc1,31%[activator],-2%
CN(CCC1CCCCO1)C(=O)CCc1nnc(CCc2ccccc2)o1 (stereo unspecified),-10%,-17%
O=C(O)c1ccccc1-c1ccccc1C(=O)Nc1cccc(-c2nc3ccccc3o2)c1,-9%,2%
Cc1cn2c(=O)cc(COc3ccc(Cl)cc3)nc2s1,-17%,-10%
COCCCNc1nc2c(c(=O)[nH]c(=O)n2C)n1CCCc1ccccc1,1%,-6%
CCOC(=O)CSc1nc(C)nc2c1sc1nc(C)c(C(C)=O)c(-c3ccc(OC)cc3)c12,-2%,0%
Cc1ccccc1NC(=O)c1ccc2nccnc2c1,-9%,-9%
CC1=C(C(=O)N(C)C)CC(CC(=O)NCC2CCCCC2)C(=O)N1Cc1ccc(F)cc1 (stereo unspecified),-6%,9%
Cc1nn(-c2ccc(N3CCCCC3)nn2)c(C)c1CCC(=O)NCc1ccc(Cl)cc1,-12%,-21%
COc1ccc(NC(=O)CCNC(=O)N2CC(=O)Nc3ccccc32)cc1OC,-6%,-12%
COc1ccc(CCC(=O)N2CCN(c3ccc(OC)cc3)CC2)cc1,-2%,-2%
CCn1cc(C(=O)OCC(=O)Nc2cccc(C)c2)c(=O)c2ccc(C)nc21,6%,-5%
CC(C)[C@H](NC(=O)NCc1cccs1)C(=O)O,-7%,-10%
O=C(COc1ccccc1O)c1cccs1,-13%,.
Cn1c(=O)c2c(nc(N3CCN(Cc4ccccc4)CC3)n2CCCc2ccccc2)n(C)c1=O,7%,.
CCOc1ccc(C(=O)Nc2cccc(NC(=O)c3ccc(Cl)cc3Cl)c2)cc1,?,?
CN(C)c1ccc(NC(=O)Nc2ccc3c(c2)c(=O)n(C)n3Cc2ccc(Cl)cc2)cc1,-18%,-30%
CCCC(=O)Nc1ccc(-c2csc(-c3cccnc3)n2)cc1,-12%,-20%
CCOc1ccc(NC(=O)C2CCCN2S(=O)(=O)c2ccc(OCC)cc2)cc1 (stereo unspecified),-1%,5%
O=C1Nc2ccccc2/C1=N\N=C\c1ccc(O)c(O)c1,-17%,-8%
Cc1nc2ccccc2n1C(C)c1nc2ccccc2n1CC(=O)c1ccsc1 (stereo unspecified),-1%,-1%
O=C1CSC(=S)N1Cc1ccccc1,-1%,i
CCC1CCCCN1C(=O)CSc1nnc(-c2cccc(Cl)c2)o1 (stereo unspecified),-18%,?
CCOC(=O)C1(Cc2ccc(OC)cc2)CCN(C(=O)CN2CCOC2=O)CC1,-4%,i
Cc1ccc(S(=O)(=O)N2CCC[C@H]2C(=O)NC2=NCCS2)cc1,-7%,-20%
CN(C)CCNC(=O)CNC(=S)N(Cc1ccccc1)Cc1cccnc1,-6%,-9%
O=S(=O)(c1cccc(-c2n[nH]c(=S)o2)c1)N1CCOCC1,-9%,i
Cc1nc2ccc(NC(=O)c3ccc(F)c(S(=O)(=O)N4CCOCC4)c3)cc2s1,-27%,.
O=C1CCN(CCc2ccccc2)CCN1[C@H](CSc1ccccc1)Cc1ccccc1,-29%&-18%,-23%
CN(C)CCCNCC(=O)c1c(-c2ccccc2)n(C)c2ccccc12,?,i
COc1cc(SC)ccc1C(=O)OC(C)C(=O)Nc1ccc(NC(C)=O)cc1 (stereo unspecified),-10%,-11%
Cc1cc[n+](-c2nc3ccccc3nc2C(=C=[N-])C#N)cc1,12%,-7%
O=C(Nc1ccccc1)c1ccc(-c2ccccc2Cl)o1,-17%,i
CCc1ccc(C(=O)N/N=C(\C)c2cccnc2)s1,-4%,-4%
CCOc1ccc(OCC(=O)OCC(=O)NCC2CCCO2)cc1 (stereo unspecified),-1%,-10%

Some of the entries above, set out differently:
Values run as follows: Vaccinia Venus, VACV mCherry inh
COc1cc(SC)ccc1C(=O)OC(C)C(=O)Nc1ccc(NC(C)=O)cc1 (stereo unspecified)
  -10%, -11%
Cc1cc[n+](-c2nc3ccccc3nc2C(=C=[N-])C#N)cc1
  12%, -7%
O=C(Nc1ccccc1)c1ccc(-c2ccccc2Cl)o1
  -17%, i
CCc1ccc(C(=O)N/N=C(\C)c2cccnc2)s1
  -4%, -4%
CCOc1ccc(OCC(=O)OCC(=O)NCC2CCCO2)cc1 (stereo unspecified)
  -1%, -10%

(listing goes on)
mol,Vaccinia Venus,VACV mCherry inh
CCOC(=O)CC(=O)CSc1ccc2nnc(-c3ccc(F)cc3)n2n1,-5%,i
Cc1ccc(S(=O)(=O)CC(=O)c2ccc3c(c2)OCCO3)cc1,0%,i
CC1=C(C(=O)Nc2cc(C(=O)NCCCOC(C)C)ccc2C)SCCO1,-8%,-16%
O=C(N/N=C/c1ccccc1)c1ccc(N2CCCC2=O)cc1,5%,38%[activator]
O=C(O)c1ccc(Nc2c3ccccc3nc3ccccc23)cc1,-11%,-21%
CCN(CC)CCCn1c(C)cc2c(c1=O)C(c1ccc(OC)c(OC)c1OC)C(C#N)=C(N)O2 (stereo unspecified),-12%,i
Cc1ccc(CCNS(=O)(=O)c2ccc3c(c2)C(C(C)C)C(=O)N3)cc1 (stereo unspecified),-10%,-17%
COC(=O)C1=C(c2ccc(F)cc2OCc2ccccc2)C[C@@H]2CC[C@H]1N2C(=O)N1CCC(O)(c2ccc(Cl)cc2)CC1,?,-12%
COc1cccc(CNC(=O)C(C)n2nc(C)n3c(cc4occc43)c2=O)c1 (stereo unspecified),-6%,-18%
CCC(Sc1nc2ccsc2c(=O)n1-c1ccc(Cl)c(C)c1)C(=O)NCc1ccco1 (stereo unspecified),-10%,-10%
O=C(CCN1C(=O)c2ccccc2C1=O)C1=NN[C@@H]2C(=O)N(c3cccc(F)c3)C(=O)[C@H]12,-9%,-13%
Cc1ccc(CCNC(=O)C23CN(Cc4ccccc4)CC2C(c2ccc([N+](=O)[O-])cc2)=NO3)cc1 (stereo unspecified),-20%,-5%
CCCC(=O)Nc1ccc2c(c1)nc1n2CCN(CCOC)C1,-17%,-9%
CC(=O)Nc1ccc(S(=O)(=O)NCc2csc(C)n2)cc1,2%,-10%
CC(C)CNS(=O)(=O)c1ccc(OCC(=O)Nc2ccc(F)cc2F)cc1,-7%,.
CCOC(OCC)P(=O)(C(C)C)C(C)C,5%,.
COc1ccc(N2C(=O)C(Cl)=C(N3CCOCC3)C2=O)cc1,-9%,-26%
COC(=O)C1CCN(C(=O)CN(C)Cc2ccc(C(C)(C)C)cc2)CC1,-2%,i
Cn1c(=O)n(C)c2cc(CNCCc3ccccc3F)ccc21,-10%,-9%
CCOC(=O)c1cc(COc2cc(Cl)cc(Cl)c2)on1,-14%,i
CC1CCN(C(=O)CSc2nnc(-c3ccncc3)n2C)CC1,-5%,-8%
CN(Cc1ccc(Cl)cc1Cl)C(=O)CN1C(=O)NC2(CCCC2)C1=O,-24%,-9%
C/C(N)=C(/C#N)C(=O)CSc1nnc(Cc2ccccc2F)n1N,2%&-5%,-14%
CCc1ccc(OCC(=O)NNC(=O)c2c(CC)noc2C)cc1,-8%,i

Continued:
| SMILES | Vaccinia Venus | VACV mCherry inh |
| --- | --- | --- |
| O=C1CC(NS(=O)(=O)c2cccnc2)CN1c1ccc(Cl)cc1 (stereo unspecified) | -12% | i |
| COc1ccc(C(=O)C2CCCN(Cc3cc(C)c(O)c(C)c3)C2)c(OC)c1 (stereo unspecified) | -12% | -15% |
| O=C(CC1SC(=O)N(Cc2ccccc2Cl)C1=O)Nc1nccs1 (stereo unspecified) | -10% | 3% |
| Cc1ccc(CN2C(=O)CCC2C(=O)NCC2CCCO2)cc1 (stereo unspecified) | -13% | . |
| COc1ccccc1N1CCN(C(=O)/C=C/c2c(Cl)nc3ccccn23)CC1 | -22% | i |
| COCCCN1C(=O)c2ccc(C(=O)NCc3ccccn3)cc2C1=O | -9% | -17% |
| O=C(COc1coc(CN2CCc3ccccc3C2)cc1=O)Nc1ccc(F)cc1F | -8% | -28% |
| O=C(OCCc1cc2ccccc2c(=O)o1)c1ccco1 | -6% | i |
| CC1=C(C(=O)N(C(C)C)C(C)C)CC(CC(=O)NCCN2CCOCC2)C(=O)N1Cc1ccccc1 (stereo unspecified) | -4% | -5% |
| Cc1cc(N2CCN(C(C(=O)NC3CCCC3)c3ccc(F)cc3)CC2)c2ccccc2n1 (stereo unspecified) | -26% | -5% |
| Cn1c(SCc2ccc(C#N)cc2)nnc1-c1ccccc1 | -19% | -6% |
| C/C(=N/NS(=O)(=O)c1ccc(C)cc1)c1c[nH]c2ccccc12 | -14% | -12% |
| CC(C)(C)C(=O)Nc1nnc([C@H]2C[C@H](O)[C@@H](CO)O2)s1 | -4% | i |
| COc1ccc(C(C)=O)cc1CSc1nnc(-c2ccc(Cl)cc2)n1-c1ccccc1 | -15% | -24% |
| Cc1ccc(/C(N)=N/OC(=O)c2cccc(Cn3cc(C(F)(F)F)ccc3=O)c2)cc1 | -25% | -26% |
| O=C(c1c(Cl)cccc1Cl)N1CCCCCC1 | -12% | . |
| CC1(C)CC(=O)C=C(NC2CCCCCC2)C1 | -11% | -11% |
| COc1ccc(-c2nc(N)n(C(=O)Cc3ccccc3)n2)cc1 | ? | -22% |
| O=C(CSc1ncccn1)N1CCCC1 | 10% | -4% |
| COc1ccc(C2C=C(C)Nc3nc4ccccc4n32)cc1 (stereo unspecified) | -11% | i |
| CC(C(=O)Nc1ccc(C#N)cc1)N(C)CC(=O)N(C)c1c(N)n(Cc2ccccc2)c(=O)[nH]c1=O (stereo unspecified) | 1% | i |
| O=C(/C=C/c1cccc([N+](=O)[O-])c1)NCc1ccco1 | -9% | i |
| N#Cc1ccsc1NC(=O)C1CCN(C(=O)c2ccc(Cl)cc2)CC1 | -12% | -17% |
| CCN1C(=O)[C@H]2[C@@H](c3ccccc3)N3C(=O)N(c4cccc(F)c4)C(=O)[C@@]3(CC(C)C)[C@H]2C1=O | -10% | i |
| CN(C(=O)c1ccco1)c1nnc(C23CC4CC(CC(C4)C2)C3)s1 | -6% | 0% |
| CN(C)CCNc1ccc(CO)c2oc3ccc(O)cc3c(=O)c12 | 10µM* | ? |
| C[C@H](CO)N1C[C@H](C)[C@@H](CN(C)S(=O)(=O)c2cccc(F)c2)Oc2ncc(Br)cc2C1=O | -14% | i |
| CC(=O)N/N=C/c1cc(C(C)(C)C)cc(/C=N/NC(C)=O)c1O | -6% | ? |
| CC(OC(=O)CCCN=C1NS(=O)(=O)c2ccccc21)C(=O)Nc1ccccc1[N+](=O)[O-] (stereo unspecified) | -12% | i |
| CCc1cc2cc(C)ccc2nc1SCC(=O)NNC(=O)c1ccco1 | -17% | -10% |
| C[N+]1(Cc2ccccc2)CCC(C(=O)OCC2CCCC2)CC1 (stereo unspecified) | -11% | i |
| COCCCNC(=O)c1cnn(-c2ccc(F)cc2F)c1C1CCNCC1 | -5% | 0% |
| COc1cc2c(cc1OC)CC(C(=O)NCc1ccccc1)NC2 (stereo unspecified) | -11% | i |
| COc1ccc(OC)c(CNC(=O)CN2CC(C)Sc3ccccc32)c1 (stereo unspecified) | 6% | -2% |
| Cc1ccc(C(=O)Nc2ccc3c(c2)OCCO3)cc1S(=O)(=O)N1CCOCC1 | ? | -26% |
| COC(=O)CSc1nnc(CNC(=O)c2ccc(S(=O)(=O)N3CCOCC3)cc2)n1C | -16% | i |
| CC(=O)c1ccc(NC(=O)Nc2sc3nc4n(c(=O)c3c2C)CCC(C)CC4)cc1 (stereo unspecified) | -14% | -10% |
| CCOC(=O)C1(C(=O)OCC)NC(=O)CC1C(C)C (stereo unspecified) | -7% | -11% |
| COC(=O)c1[nH]c2cc(C)ccc2c1NC(=O)CN1CCCc2ccccc21 | -18% | . |
| COc1ccccc1Nc1nnc(SCC(=O)N2CCCC2)s1 | -10% | -12% |

Record cards (already shown).
Profile of `Cc1nc2ccc(NC(=O)c3ccc(F)c(S(=O)(=O)N4CCOCC4)c3)cc2s1` : Vaccinia Venus: -27%; VACV mCherry inh: .
Profile of `CCc1ccc(C(=O)N/N=C(\C)c2cccnc2)s1` : Vaccinia Venus: -4%; VACV mCherry inh: -4%
Profile of `Cc1ccc(S(=O)(=O)CC(=O)c2ccc3c(c2)OCCO3)cc1` : Vaccinia Venus: 0%; VACV mCherry inh: i

(cont.)
| SMILES | Vaccinia Venus | VACV mCherry inh |
| --- | --- | --- |
| COc1ccc(NC(=O)CSc2nc3[nH]ncc3c(=O)[nH]2)c(OC)c1 | 0% | -10% |
| CCCCCCCCN1C(=O)[C@H](CC(=O)NCCc2ccccc2OC)C[C@@]2(C(=O)OC)CC(C)(C)CC=C12 | ? | -14% |
| Cc1ccc(C(C)C)c(OCC(=O)NNC2=CC(=O)CC(C)(C)C2)c1 | 1% | -23% |
| COC(=O)c1cc(NC(=O)COC(=O)CN2C(=O)C3CC=CCC3C2=O)cc(C(=O)OC)c1 (stereo unspecified) | -12% | -4% |
| CN=C1N(C)C[C@@H]2[C@@H]3C(=O)N(C)C(=O)[C@@H]3[C@](Cc3ccccc3)(C(=O)OC)N12 | -6% | -8% |
